Screens deposited in PubChem by several laboratories.
B2AR ag: agonists of human beta-2 adrenergic receptor inducing internalization; Am2.2-beta2AR cells, FAP receptor internalization, flow cytometry; reference of the scale not given here; response, % (no concentration beside the values); hit rate 0.43% among 340,000; AID 504454;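 active means response above a set limit, near 3 SD of response in nonfluorescent compounds, cut at about 42% in these data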;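 further: stock transfer was 100 nL into about 11 µL; a reference agonist was the positive control; negative values mostly stem from fluorescent compounds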
Target sequence (P07550 whole entry, looked up): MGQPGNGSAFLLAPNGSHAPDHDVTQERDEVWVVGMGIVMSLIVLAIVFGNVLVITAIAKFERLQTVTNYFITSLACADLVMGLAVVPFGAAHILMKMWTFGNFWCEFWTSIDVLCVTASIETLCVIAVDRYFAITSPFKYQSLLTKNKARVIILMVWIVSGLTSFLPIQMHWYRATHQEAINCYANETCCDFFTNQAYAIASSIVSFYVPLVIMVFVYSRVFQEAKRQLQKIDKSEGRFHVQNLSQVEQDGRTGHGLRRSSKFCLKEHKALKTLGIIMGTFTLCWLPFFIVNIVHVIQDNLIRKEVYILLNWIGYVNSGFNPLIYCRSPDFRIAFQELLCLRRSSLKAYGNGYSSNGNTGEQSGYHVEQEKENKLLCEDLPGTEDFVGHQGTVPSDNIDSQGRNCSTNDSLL
FGF22 binding: FGF22 (human) thermal shift binding; Q9HCT0; recombinant FGF22 thermal shift, SYPRO orange fluorescence; percent of sucrose octasulfate shift, DMSO zero; calls only at 9.99 µM; hit rate 1.5% among 340,000; AID 651658;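 active means melting point raised past a set limit in the mean and every replicate; three in four hits are not shown here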
Target sequence (Q9HCT0 whole entry, looked up): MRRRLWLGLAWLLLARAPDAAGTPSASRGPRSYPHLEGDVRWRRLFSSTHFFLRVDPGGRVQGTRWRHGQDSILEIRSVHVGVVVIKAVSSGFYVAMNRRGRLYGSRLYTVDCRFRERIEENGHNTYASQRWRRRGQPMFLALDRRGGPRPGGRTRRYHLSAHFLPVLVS
UCH37 inh: human UCH37 deubiquitinating enzyme inhibition; Q9Y5K5; purified proteasome/UCH37, Ub-AMC cleavage fluorescence; inhibition, % (concentration not given with the values); hit rate 0.33% among 330,000;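 active means mean of two replicates above 20%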;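 further: 0% = compound-free wells with enzyme and 100% = wells lacking proteasome; stock transfer was 100 nL into about 20 µL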
Target sequence (Q9Y5K5 whole entry, looked up): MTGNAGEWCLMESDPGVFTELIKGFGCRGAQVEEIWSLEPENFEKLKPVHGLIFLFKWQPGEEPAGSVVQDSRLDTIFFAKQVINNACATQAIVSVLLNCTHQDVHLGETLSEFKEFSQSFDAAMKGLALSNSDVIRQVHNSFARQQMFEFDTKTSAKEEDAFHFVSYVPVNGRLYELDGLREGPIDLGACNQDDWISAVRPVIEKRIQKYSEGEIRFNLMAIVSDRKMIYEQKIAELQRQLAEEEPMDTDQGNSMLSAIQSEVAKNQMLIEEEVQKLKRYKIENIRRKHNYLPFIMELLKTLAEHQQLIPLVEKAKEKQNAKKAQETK
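system = Proteasome-associated human UCH37 deubiquitinase | amount = 0.15 nM proteasome as dispensed | medium = pH 7.4 Tris-HCl (50 mM) with ovalbumin, ATP-MgCl2, DTT | incubation = 30 min preincubation with enzyme, 25 min cleavage at room temperature | detection = AMC fluorescence 355/460 nm | read-out basis = percent inhibition | controls = no-proteasome and no-compound wells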
HNF4A DNA FP: change in binding of human HNF4 alpha to DNA | HNF4a-FITC DNA binding, fluorescence polarization, 1 h | hit rate 0.3% among 360,000 | activity change, % at 10 µM | AID 1224865 | P41235; in the data active means activity change above about 30%, passing the limit was not always enough;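 further: controls were the assay level and a saturating level of protein; the project sought stronger binding though the title names inhibitors; some compounds called inactive have numbers as strong as hits; positive values seem to mean higher polarization but the record does not say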
Ecoli rRNA inh: inhibitors of bacterial rRNA selective over humanized ribosomes. E. coli WT GFP vs humanized-ribosome RFP mutants, fluorescence, 24 h; active compounds read low; DMSO median 0, no signal -100. AID 720706. hit rate 1.6% among 350,000. GFP signal change (wild-type ribosome), % (no concentration beside the values);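 active means significant combined selectivity score with lowered wild-type GFP, culture density cut under 30%, mutant RFP and density less affected; inactive means any of these conditions unmet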; further: one replicate is shown; some compounds called inactive have numbers as strong as hits
E coli growth: E. coli growth inhibition | Escherichia coli growth, OD600, 23 h; active compounds read low | hit rate 0.21% among 330,000 | OD600 absorbance (concentration not given with the values);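 active means OD600 absorbance below the run mean of sample wells minus 3.6 SD, in any replicate, cut at about 0.56 in these data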;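 further: stock transfer was 300 nL into about 60 µL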
ALR inh: inhibitors of human sulfhydryl oxidase ALR; P55789; hit rate 3.8% among 290,000; AID 485317; inhibition, % (no concentration beside the values); purified ALR, DTT oxidation, H2O2 HRP-luminol luminescence;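 active means mean and each replicate at 75% or more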;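 further: stock transfer was 7.5 nL into about 7.5 µL; 0% = neutral wells and 100% = wells with inactivated enzyme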
Ecoli rRNA inh OD600: second read-out of Ecoli rRNA inh, no call of its own (marks repeat the call); OD600 change, %; measured here: OD600 growth;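 optical density of the mix in the first replicate; 0 = DMSO median and -100 = no signal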
Ecoli rRNA inh RFP: second read-out of Ecoli rRNA inh, no call of its own (marks repeat the call); RFP signal change, %; measured here: RFP humanized mutant strains;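 first replicate; 0 = DMSO median and -100 = no signal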
* = called active by the depositor. Only part of the results is shown. The share of hits here may be higher or lower than overall.

For Cc1ccc(CN2CCNC(=O)C2CC(=O)N(C)C(C2CC2)C2CC2)o1 (stereo unspecified) the results were B2AR ag 2, FGF22 binding inactive, UCH37 inh 0.6, HNF4A DNA FP -1.7, Ecoli rRNA inh 14, E coli growth 0.65, ALR inh 0, Ecoli rRNA inh OD600 6 and Ecoli rRNA inh RFP -3.0.
`CN(CCOc1ccccc1)C(=O)C1CCN(C(=O)c2ccc(Cl)cc2)CC1` gave B2AR ag -3, FGF22 binding inactive, UCH37 inh 1.6, HNF4A DNA FP 3.3, Ecoli rRNA inh -5, E coli growth 0.71, ALR inh 1, Ecoli rRNA inh OD600 -6 and Ecoli rRNA inh RFP 1.3.
Cc1ccc(Cl)cc1NC(=S)N/N=C/c1cccc2ccccc12 was read as B2AR ag 2, FGF22 binding inactive, HNF4A DNA FP -1.3, Ecoli rRNA inh 3, ALR inh 3, Ecoli rRNA inh OD600 14 and Ecoli rRNA inh RFP 7.4.
`O=C(Nc1cccc(S(=O)(=O)N2CCOCC2)c1)c1ccc(=O)[nH]c1` gave B2AR ag -4, FGF22 binding inactive, UCH37 inh 2.3, HNF4A DNA FP -3.8, Ecoli rRNA inh 11, E coli growth 0.72, ALR inh -1, Ecoli rRNA inh OD600 21 and Ecoli rRNA inh RFP -0.8.
For COc1ccc(C2=CC(=O)OC3(CCCC3)O2)cc1 the results were B2AR ag -1, UCH37 inh 4.1, HNF4A DNA FP 0.4, E coli growth 0.69 and ALR inh -2.
`Cc1cc(C)cc(S(=O)(=O)Cc2noc(C(=O)NCc3ccccc3)c2C(=O)NCc2ccccc2)c1` gave B2AR ag 13, FGF22 binding inactive, UCH37 inh 0.7, HNF4A DNA FP 1.2, Ecoli rRNA inh -5, E coli growth 0.64, ALR inh 3, Ecoli rRNA inh OD600 -3 and Ecoli rRNA inh RFP -8.7.
CN1C(=O)CS(=O)c2ccc(C(=O)NCCC3=CCCCC3)cc21 (stereo unspecified) was read as B2AR ag 5, FGF22 binding inactive, UCH37 inh 2.9, HNF4A DNA FP 0.1, Ecoli rRNA inh 0, E coli growth 0.78, Ecoli rRNA inh OD600 11 and Ecoli rRNA inh RFP 3.5.
`CC(C)CNC(=O)c1ccccc1NC(=O)CSCc1ccccc1` gave B2AR ag -1, UCH37 inh 5.7, HNF4A DNA FP -3.3, E coli growth 0.84 and ALR inh -5.
Cc1cc([N+](=O)[O-])ccc1NCc1ccc2ccccc2c1 was read as B2AR ag 10, FGF22 binding inactive, UCH37 inh 6.6, HNF4A DNA FP -1.6, Ecoli rRNA inh -2, E coli growth 0.68, ALR inh 1, Ecoli rRNA inh OD600 6 and Ecoli rRNA inh RFP 3.6.
`Cc1ccc(NS(=O)(=O)c2cc(NC(=O)c3ccc4c(c3)NC(=O)CS4)ccc2C)c(C)c1` gave B2AR ag 26, FGF22 binding inactive, UCH37 inh 2.8, HNF4A DNA FP 2.4, E coli growth 0.71 and ALR inh -4.
COc1ccccc1N1CCN(C(=O)c2cc3cc(F)ccc3[nH]2)CC1 was read as B2AR ag -2, FGF22 binding inactive, UCH37 inh 2.9, HNF4A DNA FP 1.6, Ecoli rRNA inh 0, E coli growth 0.69, ALR inh -4, Ecoli rRNA inh OD600 4 and Ecoli rRNA inh RFP -1.3.
O=C(c1ccc(F)cc1)N1CCN(c2cnn(-c3ccccc3)c(=O)c2Cl)CC1 was read as B2AR ag 11, FGF22 binding inactive, UCH37 inh 6.0, HNF4A DNA FP -3.1, Ecoli rRNA inh 7, E coli growth 0.69, ALR inh -5, Ecoli rRNA inh OD600 0 and Ecoli rRNA inh RFP -3.0.
O=C(O)c1ccccc1OCc1ccccc1Cl was read as B2AR ag -6, FGF22 binding inactive, UCH37 inh 0.3, HNF4A DNA FP -0.8, Ecoli rRNA inh 0, E coli growth 0.69, ALR inh -1, Ecoli rRNA inh OD600 -5 and Ecoli rRNA inh RFP -4.9.
Screening O=C(Nc1ccc2c(c1)CCC2)c1ccccc1F returned B2AR ag 31, UCH37 inh 2.7, HNF4A DNA FP 0.7, E coli growth 0.62 and ALR inh 42.
`O=C1NCCCN1C1OC(CO)C(O)C1O` (stereo unspecified) gave FGF22 binding inactive, HNF4A DNA FP -3.1, Ecoli rRNA inh 13, Ecoli rRNA inh OD600 26 and Ecoli rRNA inh RFP -0.7.
Screening Cc1nc2ccccc2c(=O)n1/N=C/c1cn[nH]c1-c1ccccc1 returned B2AR ag 8, FGF22 binding inactive, HNF4A DNA FP -1.1, Ecoli rRNA inh -3, ALR inh -12, Ecoli rRNA inh OD600 -2 and Ecoli rRNA inh RFP -2.2.
For COc1cc(NC(=O)Nc2cccc3cccnc23)cc(OC)c1OC the results were B2AR ag 10, FGF22 binding inactive, UCH37 inh 7.1, HNF4A DNA FP -0.1, Ecoli rRNA inh -13, E coli growth 0.66, ALR inh -21, Ecoli rRNA inh OD600 -9 and Ecoli rRNA inh RFP -2.7.
For Cc1ccc(S(=O)(=O)NCCCC(=O)C=[N+]=[N-])cc1 the results were B2AR ag 0, UCH37 inh 4.2, HNF4A DNA FP -2.6, E coli growth 0.7 and ALR inh -4.
COC(=O)c1ccc2nc(-c3ccc(OC)c(OC)c3)c(Cc3ccsc3)n2c1 was read as FGF22 binding inactive, HNF4A DNA FP 1.7, Ecoli rRNA inh 5, Ecoli rRNA inh OD600 14 and Ecoli rRNA inh RFP -2.0.
CCN(CC)c1ccc(NC(=O)CN2CCN(c3ccccc3F)CC2)cc1 was read as B2AR ag 3, UCH37 inh 3.2, HNF4A DNA FP 0.0, E coli growth 0.73 and ALR inh 99*.
For Cc1noc(NS(=O)(=O)c2ccc(NC(=O)CSc3ncccn3)cc2)c1C the results were B2AR ag 1, FGF22 binding inactive, UCH37 inh 3.9, HNF4A DNA FP 3.7, Ecoli rRNA inh 4, E coli growth 0.62, ALR inh 98*, Ecoli rRNA inh OD600 7 and Ecoli rRNA inh RFP 17.
Screening NC(=O)[C@@H]1CCCN1C(=O)[C@@H](Cc1cnc[nH]1)NC(=O)[C@@H]1CCC(=O)N1 returned B2AR ag 0, FGF22 binding inactive, UCH37 inh 1.1, HNF4A DNA FP -3.1, Ecoli rRNA inh 14, E coli growth 0.64, Ecoli rRNA inh OD600 18 and Ecoli rRNA inh RFP -0.7.
Screening O=C(COC(=O)C1CCCCC1)Nc1ccc([N+](=O)[O-])cc1 returned B2AR ag 4, UCH37 inh 1.9, HNF4A DNA FP -2.2, Ecoli rRNA inh -3, E coli growth 0.68, ALR inh 2, Ecoli rRNA inh OD600 0 and Ecoli rRNA inh RFP 0.2.
Screening CCOC(=O)CC(=O)CSc1ncnc2c1oc1ccccc12 returned B2AR ag 4, UCH37 inh 6.0, HNF4A DNA FP -1.4, E coli growth 0.71 and ALR inh 4.
For OCCCn1c(CCNc2nc(-c3ccc(Cl)cc3)cs2)nc2cc(C(F)(F)F)ccc21 the results were B2AR ag -1, HNF4A DNA FP -4.3 and ALR inh 1.
COc1ccc(CN(C)C(=O)/C=C/[C@H]2O[C@@H](n3cnc4c(N)ncnc43)[C@H](O)[C@@H]2O)cc1OC was read as FGF22 binding inactive, HNF4A DNA FP 2.1, Ecoli rRNA inh 22, Ecoli rRNA inh OD600 23 and Ecoli rRNA inh RFP 1.1.
`Cc1cc2cc(CNC(=O)NC3CCCCC3)ccc2n1C` gave B2AR ag 9, FGF22 binding inactive, UCH37 inh 3.4, HNF4A DNA FP -0.9, Ecoli rRNA inh -4, E coli growth 0.78, Ecoli rRNA inh OD600 8 and Ecoli rRNA inh RFP 31.
N#Cc1cc2c(nc1SCc1ccccc1)CCCC2 was read as B2AR ag -8, FGF22 binding inactive, UCH37 inh 4.8, HNF4A DNA FP 0.4, E coli growth 0.71 and ALR inh -3.
`CCOC(=O)c1c(N)nn(C(=O)c2ccccc2)c1-c1ccccc1` gave B2AR ag -13, FGF22 binding inactive, UCH37 inh 5.6, HNF4A DNA FP -2.1, Ecoli rRNA inh 1, E coli growth 0.67, ALR inh 3, Ecoli rRNA inh OD600 3 and Ecoli rRNA inh RFP 1.6.
Screening Cc1ccc(C(=O)N(CC(=O)NC2CCCCC2)c2ccccc2C)s1 returned B2AR ag 2, UCH37 inh 1.5, HNF4A DNA FP 2.4, Ecoli rRNA inh -12, E coli growth 0.65, ALR inh 2, Ecoli rRNA inh OD600 -12 and Ecoli rRNA inh RFP 0.6.

By substructure, the entries above with a nitro group on carbon (2)
Cc1cc([N+](=O)[O-])ccc1NCc1ccc2ccccc2c1 was read as B2AR ag 10, FGF22 binding inactive, UCH37 inh 6.6, HNF4A DNA FP -1.6, Ecoli rRNA inh -2, E coli growth 0.68, ALR inh 1, Ecoli rRNA inh OD600 6 and Ecoli rRNA inh RFP 3.6.
Screening O=C(COC(=O)C1CCCCC1)Nc1ccc([N+](=O)[O-])cc1 returned B2AR ag 4, UCH37 inh 1.9, HNF4A DNA FP -2.2, Ecoli rRNA inh -3, E coli growth 0.68, ALR inh 2, Ecoli rRNA inh OD600 0 and Ecoli rRNA inh RFP 0.2.

Next section:
For Cc1ccc(Cn2ccc(NC(=O)c3cc(-c4ccc(F)cc4)on3)n2)cc1 the results were B2AR ag 2, UCH37 inh 2.4, HNF4A DNA FP 3.8, E coli growth 0.77 and ALR inh -5.
Screening C/C(=N/O)c1cccc(N2Cc3ccccc3C2)c1 returned B2AR ag -4, FGF22 binding inactive, HNF4A DNA FP 2.5, Ecoli rRNA inh -9, ALR inh -33, Ecoli rRNA inh OD600 -10 and Ecoli rRNA inh RFP -1.1.
CCOC(=O)[C@H]1[C@H]2COc3ccc(Br)cc3[C@@H]2N2C(=O)CN(CC3CCCO3)C(=O)[C@@]12C (stereo partly specified) was read as B2AR ag 3, FGF22 binding inactive, UCH37 inh 0.4, HNF4A DNA FP 2.2, Ecoli rRNA inh -5, ALR inh 2, Ecoli rRNA inh OD600 -6 and Ecoli rRNA inh RFP -4.3.
For Cc1nn(C)c(Oc2cccc(C(F)(F)F)c2)c1C#N the results were B2AR ag 0, FGF22 binding inactive, UCH37 inh 5.3, HNF4A DNA FP -2.4, Ecoli rRNA inh 11, E coli growth 0.74, ALR inh -5, Ecoli rRNA inh OD600 14 and Ecoli rRNA inh RFP -1.5.
`CCCCNC(=O)Nc1nnc(-c2ccccc2)o1` gave B2AR ag -2, UCH37 inh -4.0, HNF4A DNA FP -0.3, E coli growth 0.69 and ALR inh 2.
Screening O=C(NCCN1CCN(Cc2ccccc2Cl)CC1)Nc1ccccc1 returned B2AR ag 7, FGF22 binding inactive, UCH37 inh 3.5, HNF4A DNA FP -3.6, Ecoli rRNA inh 4, E coli growth 0.62, ALR inh -10, Ecoli rRNA inh OD600 -2 and Ecoli rRNA inh RFP -3.1.
Cc1ccc2c(c1)NC(=O)C(CC(=O)NCCCN1CCCC1=O)O2 (stereo unspecified) was read as B2AR ag -5, FGF22 binding inactive, UCH37 inh 2.8, HNF4A DNA FP 5.0, Ecoli rRNA inh 13, E coli growth 0.73, Ecoli rRNA inh OD600 15 and Ecoli rRNA inh RFP -1.2.
CCOc1ccc(C(CC(=O)O)NC(=O)c2ccco2)cc1 (stereo unspecified) was read as B2AR ag 4, UCH37 inh 1.6, HNF4A DNA FP 4.0, E coli growth 0.65 and ALR inh 2.
Screening CC1Cc2ccccc2N1C(=O)CN1C(=O)COc2ccccc21 (stereo unspecified) returned B2AR ag 8, UCH37 inh 2.8, HNF4A DNA FP 5.7, E coli growth 0.72 and ALR inh 0.
Screening Cn1cnnc1SCC(=O)NNC(=O)c1ccc(Cl)cc1 returned B2AR ag 7, FGF22 binding inactive, UCH37 inh 0.6, HNF4A DNA FP 1.9, Ecoli rRNA inh 15, E coli growth 0.67, Ecoli rRNA inh OD600 2 and Ecoli rRNA inh RFP -1.7.
